A1 apoptosis 2: A1 inhibition read as caspase activation; MEF A1-2A-BIM cells, caspase-Glo luminescence, 3 h; percent of clofoctol response, DMSO zero; caspase activation, % (concentration not given with the values); 24,000 tested, under 10 active; AID 2465; in the data active = caspase activation above about 5.9%;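 note: wells of about 30 µL received 50 nL stock; the first replicate is given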
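system = A1-2A-BIM-expressing MEF cells | quantity = 2500 MEF cells/well | dosing = 50 nL compound per well, pinned | schedule = overnight cell settling, then 3 h compound exposure, 37 °C | signal = luminescence from DEVD-luciferin Caspase-Glo reagent, 1:1 in 50 mM HEPES, 1 h RT | read-out = Caspase-3/7 activation, seen as rise in luminescence signal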
Numbers without * were called inactive.

SMILES | A1 apoptosis 2
Cc1noc(C)c1NC(=O)Nc1ccc2c(c1)CC(=O)N([C@@H](C)CO)C[C@@H](C)[C@H](CN(C)C(=O)NC(C)C)O2 | -0.5
C[C@@H]1CN([C@@H](C)CO)C(=O)Cc2cc(NC(=O)c3ccncc3)ccc2O[C@@H]1CN(C)C(=O)NC1CCCCC1 | 0.3
C[C@H](CO)N1C[C@H](C)[C@H](CN(C)Cc2ccccc2)Oc2c(NS(=O)(=O)c3ccccc3)cccc2C1=O | -0.3
C[C@H]1CN([C@@H](C)CO)C(=O)c2cc(NC(=O)Nc3ccc(F)cc3)ccc2O[C@@H]1CN(C)Cc1ccc(C(F)(F)F)cc1 | -0.3
C[C@@H]1CN([C@H](C)CO)C(=O)c2cccc(NS(=O)(=O)c3cccs3)c2O[C@@H]1CN(C)C(=O)Nc1cccc2ccccc12 | -0.3
C[C@@H]1CN([C@@H](C)CO)C(=O)Cc2cc(NC(=O)C3CCCCC3)ccc2O[C@@H]1CN(C)Cc1ccc(C(=O)Nc2ccccc2N)cc1 | 0.6
C[C@@H]1CN([C@H](C)CO)C(=O)c2cccc(NS(=O)(=O)c3cccs3)c2O[C@H]1CN(C)Cc1ccc(C(=O)O)cc1 | 0.7
C[C@H](CO)N1C[C@H](C)[C@@H](CN(C)C(=O)Nc2ccccc2)OCCCC[C@H](C)Oc2ccc(NC(=O)NC3CCCCC3)cc2C1=O | 1.8
CC(C)NC(=O)N(C)C[C@H]1OCCCC[C@H](C)Oc2ccc(NS(C)(=O)=O)cc2C(=O)N([C@H](C)CO)C[C@@H]1C | 1.3
CC(C)NC(=O)N(C)C[C@H]1Oc2ccc(NC(=O)CCN3CCOCC3)cc2CC(=O)N([C@H](C)CO)C[C@H]1C | 1.2
C[C@@H]1CCCCO[C@H](CN(C)CC2CCCCC2)[C@H](C)CN([C@H](C)CO)C(=O)c2cc(NC(=O)Cc3ccccc3)ccc2O1 | 0.8
C[C@H]1CN([C@@H](C)CO)C(=O)c2cccc(NC(=O)Nc3ccc4c(c3)OCO4)c2O[C@@H]1CN(C)Cc1ccccc1 | -0.1
C[C@H](CO)N1C[C@H](C)[C@H](CN(C)Cc2ccc(-c3ccccc3)cc2)Oc2ccc(NC(=O)CCN3CCOCC3)cc2CC1=O | -0.5
C[C@@H]1CN([C@@H](C)CO)C(=O)c2cccc(NC(=O)Nc3cccc4ccccc34)c2O[C@H]1CN(C)S(=O)(=O)c1cn(C)cn1 | -0.3
C[C@@H]1CCCCO[C@H](CN(C)C(=O)Nc2ccccc2)[C@H](C)CN([C@H](C)CO)C(=O)c2cc(NC(=O)CCCN(C)C)ccc2O1 | -0.6
Cc1ccc(S(=O)(=O)Nc2ccc3c(c2)C(=O)N([C@H](C)CO)C[C@@H](C)[C@H](CN(C)Cc2ccc(C(=O)O)cc2)OCCCC[C@@H](C)O3)cc1 | -0.1
C[C@@H]1CN([C@H](C)CO)C(=O)Cc2cc(NS(=O)(=O)c3ccc(F)cc3)ccc2O[C@H]1CN(C)Cc1ccc(C(=O)Nc2ccccc2N)cc1 | -0.3
C[C@H]1CN([C@@H](C)CO)C(=O)c2cc(NC(=O)Cc3cn(C)c4ccccc34)ccc2O[C@@H]1CN(C)Cc1ccc(C(=O)O)cc1 | 0.1
COc1ccc(S(=O)(=O)N(C)C[C@H]2Oc3ccc(NC(=O)Cc4cn(C)c5ccccc45)cc3C(=O)N([C@H](C)CO)C[C@@H]2C)cc1 | 0.5
C[C@H](CO)N1C[C@H](C)[C@@H](CN(C)C)Oc2ccc(NS(=O)(=O)c3cccs3)cc2C1=O | -0.7
C[C@@H]1CN([C@@H](C)CO)C(=O)c2cccc(NC(=O)Nc3ccc(C(F)(F)F)cc3)c2O[C@@H]1CN(C)S(=O)(=O)c1cccs1 | 0.1
C[C@@H]1CN([C@@H](C)CO)C(=O)c2cccc(NC(=O)c3cnccn3)c2O[C@H]1CN(C)C(=O)NC1CCCCC1 | -0.4
COc1ccc(NC(=O)N(C)C[C@@H]2Oc3ccc(NS(=O)(=O)c4cn(C)cn4)cc3C(=O)N([C@H](C)CO)C[C@@H]2C)cc1 | -0.4
O=C(CCCCCCC(=O)Nc1ccccc1O)N/N=C/[C@@H](O)[C@H](O)[C@H](O)CO | 1.4
C[C@H](CO)N1C[C@H](C)[C@@H](CN(C)Cc2ccc3c(c2)OCO3)Oc2c(NC(=O)Nc3ccc4c(c3)OCO4)cccc2C1=O | -1.8
CC(C)NC(=O)N(C)C[C@H]1OCCCC[C@H](C)Oc2ccc(NC(=O)Nc3ccc(C(F)(F)F)cc3)cc2C(=O)N([C@@H](C)CO)C[C@H]1C | 1.3
COc1ccc(S(=O)(=O)Nc2ccc3c(c2)CC(=O)N([C@H](C)CO)C[C@H](C)[C@@H](CN(C)C(=O)NC(C)C)O3)cc1 | 0.1
C[C@H]1CN([C@@H](C)CO)C(=O)c2cccc(NS(=O)(=O)c3ccc(Cl)cc3)c2O[C@@H]1CN(C)Cc1ccc(Cl)c(Cl)c1 | 0.0
C=CCOC(=O)C1=C[C@@H](c2ccc(Br)cc2)[C@H](CCCO)[C@@H](OCC)O1 | -0.3
C[C@@H]1CN([C@H](C)CO)C(=O)c2cccc(NC(=O)Nc3ccc4c(c3)OCO4)c2O[C@H]1CN(C)C | 1.2

Copied from the list:
A1 apoptosis 2 with C[C@H]1CN([C@@H](C)CO)C(=O)c2cc(NC(=O)Cc3cn(C)c4ccccc34)ccc2O[C@@H]1CN(C)Cc1ccc(C(=O)O)cc1 stands at 0.1
A1 apoptosis 2 with C[C@@H]1CN([C@H](C)CO)C(=O)c2cccc(NC(=O)Nc3ccc4c(c3)OCO4)c2O[C@H]1CN(C)C stands at 1.2
A1 apoptosis 2 with COc1ccc(S(=O)(=O)Nc2ccc3c(c2)CC(=O)N([C@H](C)CO)C[C@H](C)[C@@H](CN(C)C(=O)NC(C)C)O3)cc1 stands at 0.1

The list continues.
SMILES | A1 apoptosis 2
C[C@H]1CN([C@@H](C)CO)C(=O)c2cccc(NC(=O)Nc3cccc4ccccc34)c2O[C@@H]1CN(C)S(=O)(=O)c1cn(C)cn1 | 1.6
C[C@@H]1CN([C@H](C)CO)C(=O)c2cc(NC(=O)c3ccccc3)ccc2O[C@@H](C)CCCCO[C@H]1CN(C)Cc1ccc(Cl)c(Cl)c1 | 1.1
C[C@@H]1CN([C@H](C)CO)C(=O)c2cc(NS(=O)(=O)c3ccccc3)ccc2O[C@@H](C)CCCCO[C@@H]1CN(C)Cc1ccccc1 | -0.3
C[C@H](CO)N1C[C@H](C)[C@H](CN(C)S(=O)(=O)c2cccs2)Oc2ncc(/C=C/c3ccccc3)cc2C1=O | 0.1
C[C@H](CO)N1C[C@H](C)[C@H](CN(C)C(=O)Nc2ccc(C(F)(F)F)cc2)Oc2c(NS(=O)(=O)c3ccc(Cl)cc3)cccc2C1=O | 0.3
COc1ccc(NC(=O)N(C)C[C@@H]2Oc3ccc(NS(=O)(=O)c4cccs4)cc3C(=O)N([C@@H](C)CO)C[C@H]2C)cc1 | 0.7
C[C@@H]1CCCCO[C@@H](CN(C)C(=O)CCC(F)(F)F)[C@@H](C)CN([C@@H](C)CO)C(=O)c2cc(NS(=O)(=O)c3cn(C)cn3)ccc2O1 | -0.3
Cc1ccc(S(=O)(=O)Nc2ccc3c(c2)C(=O)N([C@H](C)CO)C[C@@H](C)[C@@H](CN(C)S(=O)(=O)c2ccc(F)cc2)O3)cc1 | -0.1
C[C@@H]1CN([C@@H](C)CO)C(=O)Cc2cc(NS(=O)(=O)c3ccccc3)ccc2O[C@@H]1CN(C)S(=O)(=O)c1ccc(F)cc1 | -0.6
C[C@@H]1CCCCO[C@H](CN(C)C(=O)Cc2ccccc2)[C@@H](C)CN([C@H](C)CO)C(=O)c2cc(NS(C)(=O)=O)ccc2O1 | 0.2
CC(C)NC(=O)Nc1ccc2c(c1)C(=O)N([C@H](C)CO)C[C@@H](C)[C@H](CN(C)C(=O)c1ccccc1)OCCCC[C@@H](C)O2 | -0.3
C[C@H]1CN([C@@H](C)CO)C(=O)c2cc(NC(=O)Nc3ccc(C(F)(F)F)cc3)ccc2O[C@@H]1CN(C)Cc1ccc(C(=O)O)cc1 | 1.2
COc1ccc(S(=O)(=O)N(C)C[C@@H]2OCCCC[C@@H](C)Oc3ccc(NS(=O)(=O)c4ccc(C)cc4)cc3C(=O)N([C@H](C)CO)C[C@@H]2C)cc1 | -0.1
C[C@H]1CN([C@@H](C)CO)C(=O)Cc2cc(NC(=O)NC3CCCCC3)ccc2O[C@H]1CN(C)S(=O)(=O)c1ccc(F)cc1 | 1.0
CC(C)NC(=O)N(C)C[C@H]1Oc2c(NC(=O)C3CC3)cccc2C(=O)N([C@H](C)CO)C[C@H]1C | 0.3

An excerpt from above in order of molar mass, rising:
SMILES | A1 apoptosis 2
CC(C)NC(=O)Nc1ccc2c(c1)C(=O)N([C@H](C)CO)C[C@@H](C)[C@H](CN(C)C(=O)c1ccccc1)OCCCC[C@@H](C)O2 | -0.3
C[C@@H]1CCCCO[C@H](CN(C)C(=O)Cc2ccccc2)[C@@H](C)CN([C@H](C)CO)C(=O)c2cc(NS(C)(=O)=O)ccc2O1 | 0.2
C[C@H]1CN([C@@H](C)CO)C(=O)c2cccc(NC(=O)Nc3cccc4ccccc34)c2O[C@@H]1CN(C)S(=O)(=O)c1cn(C)cn1 | 1.6
COc1ccc(S(=O)(=O)N(C)C[C@@H]2OCCCC[C@@H](C)Oc3ccc(NS(=O)(=O)c4ccc(C)cc4)cc3C(=O)N([C@H](C)CO)C[C@@H]2C)cc1 | -0.1

Back to the main list, starting 2 compounds before the break.
SMILES | A1 apoptosis 2
C[C@H]1CN([C@@H](C)CO)C(=O)Cc2cc(NC(=O)NC3CCCCC3)ccc2O[C@H]1CN(C)S(=O)(=O)c1ccc(F)cc1 | 1.0
CC(C)NC(=O)N(C)C[C@H]1Oc2c(NC(=O)C3CC3)cccc2C(=O)N([C@H](C)CO)C[C@H]1C | 0.3
C[C@@H]1CN([C@@H](C)CO)C(=O)c2cc(NC(=O)CCCN(C)C)ccc2O[C@@H](C)CCCCO[C@@H]1CN(C)C(=O)Nc1ccccc1 | -0.1
C[C@@H]1CN([C@H](C)CO)C(=O)c2cc(NC(=O)CCCN(C)C)ccc2O[C@H]1CN(C)Cc1ccc(C(=O)O)cc1 | -0.5
Cc1ccc(S(=O)(=O)N(C)C[C@@H]2OCCCC[C@H](C)Oc3ccc(NC(=O)Nc4ccc5c(c4)OCO5)cc3C(=O)N([C@H](C)CO)C[C@H]2C)cc1 | 0.9
Cc1ccc(S(=O)(=O)N(C)C[C@H]2Oc3ccc(NC(=O)Cn4cnnn4)cc3C(=O)N([C@H](C)CO)C[C@@H]2C)cc1 | 1.0
C[C@@H]1CCCCO[C@H](CN(C)C(=O)Nc2ccc3c(c2)OCO3)[C@@H](C)CN([C@@H](C)CO)C(=O)c2cc(NS(C)(=O)=O)ccc2O1 | -1.3
COc1ccc(S(=O)(=O)Nc2ccc3c(c2)C(=O)N([C@H](C)CO)C[C@H](C)[C@@H](CN(C)S(=O)(=O)c2cn(C)cn2)O3)cc1 | -0.2
COc1ccc(CN(C)C[C@H]2Oc3ccc(NS(=O)(=O)c4c(C)noc4C)cc3CC(=O)N([C@H](C)CO)C[C@@H]2C)cc1 | -0.5
C[C@H]1CN([C@@H](C)CO)C(=O)c2cccc(NC(=O)c3cnccn3)c2O[C@@H]1CN(C)S(=O)(=O)c1cn(C)cn1 | 0.1
C[C@H](CO)N1C[C@H](C)[C@@H](CN(C)Cc2ccc3c(c2)OCO3)Oc2c(NC(=O)C3CC3)cccc2C1=O | 0.3
C[C@H]1CCCCO[C@H](CN(C)C(=O)c2ccncc2)[C@@H](C)CN([C@@H](C)CO)C(=O)c2cc(NS(C)(=O)=O)ccc2O1 | -0.1
C[C@H]1CN([C@@H](C)CO)C(=O)CCCn2cc(nn2)CO[C@@H]1CN(C)S(=O)(=O)c1cn(C)cn1 | 0.4
C[C@@H]1CN([C@H](C)CO)C(=O)CCCn2cc(nn2)CO[C@@H]1CN(C)C | -0.1
C[C@H](CO)N1C[C@H](C)[C@H](CN(C)S(C)(=O)=O)Oc2ccc(NS(=O)(=O)c3cn(C)cn3)cc2CC1=O | 0.1
COc1ccc(NC(=O)Nc2ccc3c(c2)C(=O)N([C@@H](C)CO)C[C@H](C)[C@@H](CN(C)Cc2ccc(C(=O)O)cc2)OCCCC[C@@H](C)O3)cc1 | -0.1
O=C(NCCO)C1=C[C@H](Oc2ccccc2I)[C@@H](O)[C@H](N(Cc2ccco2)C(=O)Cc2ccccc2)C1 | -0.3
Cc1noc(C)c1NC(=O)Nc1ccc2c(c1)CC(=O)N([C@H](C)CO)C[C@@H](C)[C@@H](CN(C)C(=O)Nc1ccc3c(c1)OCO3)O2 | 0.1
C[C@H]1CCCCO[C@@H](CN(C)C(=O)C2CCCCC2)[C@@H](C)CN([C@@H](C)CO)C(=O)c2cc(NS(C)(=O)=O)ccc2O1 | -0.5
C[C@H](CO)N1C[C@H](C)[C@H](CN(C)Cc2ccccc2)OCCCC[C@H](C)Oc2ccc(N(C)C)cc2C1=O | -0.9
C[C@@H]1CN([C@@H](C)CO)C(=O)c2cc(NS(=O)(=O)c3cccs3)ccc2O[C@@H](C)CCCCO[C@H]1CN(C)CC1CCCCC1 | -0.2
[N-]=[N+]=NCc1ccccc1C[C@]1(C(=O)NCC(O)CO)N=C(c2ccc(OCCCO)cc2)O[C@H]1c1ccccc1 (stereo partly specified) | -0.9
C[C@@H]1CN([C@H](C)CO)C(=O)Cc2cc(NS(=O)(=O)c3ccc(F)cc3)ccc2O[C@@H]1CN(C)Cc1ccccc1 | 0.1
C[C@H](CO)N1C[C@H](C)[C@H](CN(C)Cc2ccccc2)Oc2c(NS(=O)(=O)c3ccc(Cl)cc3)cccc2C1=O | 0.3
C[C@@H]1CN([C@H](C)CO)C(=O)Cc2cc(NC(=O)CCC(F)(F)F)ccc2O[C@@H]1CN(C)Cc1ccc(Oc2ccccc2)cc1 | 1.1
C[C@@H]1CCCCO[C@@H](CN(C)C(=O)CCC(F)(F)F)[C@H](C)CN([C@@H](C)CO)C(=O)c2cc(NS(=O)(=O)c3cn(C)cn3)ccc2O1 | 0.5

A portion of the library; count on the stated rates, not on these rows.
